Compound activity: PubChem, National Center for Advancing Translational Sciences (NCATS)
Menin-MLL FL inh: inhibitors of human menin-MLL interaction, wild-type MLL peptide; Fluorescence polarization, fluorescein-MLL peptide displacement from menin; FP activity change, % at 61.4 µM; 290,000 tested, under 10 active; AID 1766; inconclusive = falling polarisation curve, or a change in total fluorescence; inactive = total fluorescence flat and polarisation flat or rising; no compound was filed as active; the % refers to the polarisation; negative = inhibition;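 also: % of control where 0% means no effect; inhibitors lower the polarisation; unlabelled MLL peptide was the positive control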
Sfp PPTase inh: inhibitors of Bacillus subtilis Sfp phosphopantetheinyl transferase. Q9F4F7. Biochemical Sfp PPTase activity, qHTS. Potency, µM, without a hit: max response, negative = inhibition, usual class: inhibitors. actives 3.5% (n = 310,000). AID 1490; active = well fitted inhibition curve with a large enough effect; inconclusive = small, poorly fitted or top-dose-only effect, or another doubt; inactive = no such curve, though single readings can be large or run the other way;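 also: the enzyme is Sfp with the accession as filed and its product quenches rhodamine fluorescence; potency is read from the fitted curve at half-maximal effect; 0% = enzyme reaction without inhibitor and -100% = no enzyme wells; top concentration of the series not given in the record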
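Fluorescence-quenching assay with 15 nM Sfp, 5 uM rhodamine-CoA and 12.5 uM BHQ-2-labelled ybbR peptide in pH 7.6 Hepes/MgCl2 buffer. Enzyme was pre-incubated with compound for 15 min at room temperature. Rate was taken from the 30-min fluorescence change (525/598 nm).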
TRPML1 inh: blocks the human TRPML1 channel. Q9GZU1. TRPML1-inducible cells, Ca2+ dye fluorescence, FDSS; hits give low values; inhibition of EC80 agonist-evoked calcium signal. activity change, negative = inhibition, % (test concentration not listed). actives 0.02% (n = 390,000); in the data active means activity change below about -50%; inconclusive means about -30% to -50%; inactive means above about -30%;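 also: stimulus is agonist 54-4 at its EC80 concentration; % is scaled to controls: 0 for no effect and ±100 for the full control effect; compound concentration not given in the record; the text of the record puts the active cut at -80%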
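Calcium fluorescence in TRPML1-DL cells induced overnight with Tet: a 110 s read after compound pin addition, then a 110 s antagonist read after challenge with 54-4 at 4 uM final (EC80).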
ClpP mod: qHTS Assay for Activators of ClpP | AID 651965, 2013 | ATP-dependent Clp protease proteolytic subunit (Bacillus subtilis (strain 168)), P80244 | purified B. subtilis ClpP, FRET peptide cleavage, 20 min | actives 1.9% (n = 340,000) | Potency, µM (top dose mostly 57.5 µM), inactives show at the highest dose activity change, negative = active; active = well fitted falling curve with a large enough effect; inconclusive = small, poorly fitted or top-dose-only effect; inactive = no such curve, though single readings can be large or run the other way; also: potency is read from the fitted curve at half-maximal effect; the source files actives as falling curves though it sought activators and does not explain the sign; nearly all actives have a fitted effect of over 65% in size; many hits overshoot -100%
Target sequence (P80244 whole entry, looked up): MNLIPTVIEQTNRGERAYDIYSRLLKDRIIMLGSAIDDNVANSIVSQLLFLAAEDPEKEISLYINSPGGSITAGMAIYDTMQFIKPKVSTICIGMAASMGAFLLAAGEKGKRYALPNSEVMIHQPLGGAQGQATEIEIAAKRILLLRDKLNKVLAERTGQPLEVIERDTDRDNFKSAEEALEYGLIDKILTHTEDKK
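FRET quenching reversal measured ClpP activation: 10 microg/mL B. subtilis ClpP at pH 8 with the FRET-FV decapeptide, read at 430 nm after 320 nm excitation. The 20-min minus 0-min signal was scaled between DMSO/no-enzyme wells and ADEP (5.8 microM final).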
gsp agonist: agonists of gsp mutant (McCune-Albright syndrome) | gsp mutant cells, cAMP HTRF, 30 min; control for the full effect not named in the record | Potency, µM (doses to about 76.9 µM), inactives show at the top dose activation (cAMP increase), hits mostly activators | actives 0.13% (n = 340,000) | AID 624287; active = well fitted activation curve with a large enough effect; inconclusive = small, poorly fitted or top-dose-only effect, or another doubt; inactive = no such curve, though single readings can be large or run the other way; cell line not stated here;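 also: phosphodiesterase inhibitor Ro 20-1724 added with compounds to block cAMP breakdown; potency is read from the fitted curve at half-maximal effect; nearly all actives have a fitted effect of over 60% in size; about a fifth of the inactives were tested at one dose only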
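Cells stably selected in G418 were plated at 2000/well, grown 16-24 hr, then given compounds in DMSO with the PDE inhibitor […] (300 uM solution added) for 30 min at 37C; cAMP was read by HTRF.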
TRPV1 potentiator: potentiators of human vanilloid receptor 1 (TRPV1); Q8NER1; TRPV1-expressing cells, Fluo-8 calcium influx, capsaicin EC20 potentiation; host cell line not named in the record; control for the full effect not named in the record; potentiation, % at 8.33 µM; actives 0.02% (n = 320,000); AID 540277; active means potentiation above 80%; inconclusive means 30% to 80%; inactive means below 30%; also: 0% is about no effect
Target sequence (Q8NER1 whole entry, looked up): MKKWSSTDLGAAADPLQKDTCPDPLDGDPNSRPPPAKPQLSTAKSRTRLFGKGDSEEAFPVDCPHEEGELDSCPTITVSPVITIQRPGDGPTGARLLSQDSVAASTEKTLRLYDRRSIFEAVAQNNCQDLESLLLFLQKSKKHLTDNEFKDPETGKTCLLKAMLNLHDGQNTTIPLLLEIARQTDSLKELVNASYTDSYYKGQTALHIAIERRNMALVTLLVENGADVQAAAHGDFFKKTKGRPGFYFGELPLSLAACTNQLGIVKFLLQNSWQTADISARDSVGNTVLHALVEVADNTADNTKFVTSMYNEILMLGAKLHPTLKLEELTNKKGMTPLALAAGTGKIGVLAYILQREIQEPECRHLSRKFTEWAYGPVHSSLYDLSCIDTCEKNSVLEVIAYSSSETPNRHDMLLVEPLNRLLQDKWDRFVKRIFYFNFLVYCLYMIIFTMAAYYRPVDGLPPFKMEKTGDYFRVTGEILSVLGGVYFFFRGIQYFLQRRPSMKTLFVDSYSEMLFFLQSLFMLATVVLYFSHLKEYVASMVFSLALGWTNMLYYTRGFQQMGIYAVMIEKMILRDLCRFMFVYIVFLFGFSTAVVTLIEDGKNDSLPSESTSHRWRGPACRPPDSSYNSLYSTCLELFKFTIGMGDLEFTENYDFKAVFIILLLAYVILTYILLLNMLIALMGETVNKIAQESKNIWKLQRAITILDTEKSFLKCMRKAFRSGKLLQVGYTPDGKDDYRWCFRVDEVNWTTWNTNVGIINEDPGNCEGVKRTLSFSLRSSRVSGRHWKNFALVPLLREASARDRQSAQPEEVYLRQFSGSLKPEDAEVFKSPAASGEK
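Fluo-8 calcium influx in TRPV1-expressing cells, kinetic read (ex 480/em 520 nm). Compound added and read 3 min for agonist activity, followed by capsaicin at EC20 final and 2 min further read for enhancement.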
gsp antagonist: antagonists of gsp mutant (McCune-Albright syndrome); gsp-mutant cells, cAMP HTRF, 30 min; control for the full effect not named in the record; Potency, µM (doses to about 76.9 µM), without a hit: at the highest dose activity change, negative = inhibition, usual class: inhibitors; actives 0.4% (n = 340,000); AID 624288; active = falling curve of any shape with a large fitted effect; inconclusive = falling curve, mostly with a smaller effect; inactive = flat or rising curve; cell line not stated here;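 also: intracellular cAMP measured with PDE inhibitor Ro 20-1724 present during compound exposure; potency is read from the fitted curve at half-maximal effect; % is scaled to controls: 0 for no effect and ±100 for the full control effect; nearly all actives have a fitted effect of over 65% in size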
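Measurement of cellular cAMP by homogeneous time-resolved fluorescence following a 30 min compound exposure at 37C. The PDE inhibitor […] was present throughout; the assay buffer was DPBS with 0.05% BSA and 0.005% Tween 20.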
Numbers without * were called inactive; ? = inconclusive; . = not tested or not shown; & = joins results of further samples; [ ] = dose if it differs, or a comment.

Order of values: Menin-MLL FL inh	Sfp PPTase inh	TRPML1 inh	ClpP mod	gsp agonist	TRPV1 potentiator	gsp antagonist
C=CCn1c(SCC(=O)NC2CC2)nnc1-c1ccccn1
    3.9	18.0%	2.2	1.6%	7.9%	-6.9	4.1%
CSc1ncnc2[nH]ccc12
    .	.	-1.7	.	38.5%	.	12.3%
Clc1ccc(OCCSc2nnnn2C2CCCCC2)cc1
    -3.0	-15.2%	74.8	-1.1%	-4.2%	6.5	4.4%
COc1cccc(NC(=O)COC(=O)CCC2CCCC2)c1
    .	.	2.7	-2.0%	-66.1%[inhibitor]	-4.1	2.5%
Cn1c(SCC(=O)c2ccccc2)nnc1-c1cccnc1
    2.8	-8.2%	-5.4	-0.6%	10.0%	-13.1	6.1%
CC(=O)C1=C(O)C(=O)N(CC#N)C1c1cccs1 (stereo not given)
    -2.7	-19.5%	16.3	-1.0%	0.0%	-3.7	7.7%
C#CCNC(=O)C1=C[C@@H](c2ccccc2)[C@H](CCCO)[C@@H](OCC)O1
    -3.8	-5.5%	-13.7	0.1%	.	?	2.5%
COCCNC(=S)NNC(=O)c1cc(C2CC2)nc2ccccc12
    -0.7	17.5%	0.7	5.3%	9.7%	8.3	-0.5%
CC1(C)NC(=O)N(CCOCCOc2cccc(Oc3ccccc3)c2)C1=O
    -2.4	10.3%	1.2	0.9%	-15.3%	2.1	-14.4%
c1csc(-c2cnc3ccccc3n2)c1
    2.4	1.5%	-1.8	6.31µM*	4.2%	3.7	0.6%
Cc1cc(C)cc(C(=O)NCC(=O)OCC(=O)N(C)c2ccccc2)c1
    -2.0	12.0%	-16.9	.	7.5%[15.4 µM]	-6.8	-3.5%
O=C(CN1CCOc2ccccc21)NCc1ccc(Cl)cc1
    2.1	-8.9%	-14.1	0.4%	-15.3%	-13.6	1.0%
Cc1noc(C)c1S(=O)(=O)N(CC(=O)NC1CCCC1)c1ccc(C(C)C)cc1
    .	-0.2%	-1.2	-0.4%	29.1%	-0.4	1.2%
CNC(=O)CSc1nc2ccccc2c(=O)n1C1CCCCC1
    -0.1	1.6%	1.7	0.6%	-27.5%	-15.0	13.9%
Cc1cccc(N2CCN(C(=S)c3ccc([N+](=O)[O-])cc3)CC2)c1
    1.7	25.1µM*	9.9	0.6%	-2.9%	4.0	-6.1%
CCN1C(=O)CC(N2CCC(C(=O)OC)CC2)C1=O (stereo not given)
    1.6	4.0%	-0.2	-2.7%	-18.5%	-0.1	6.6%
O=C(CCc1nc2ccccc2s1)Nc1cccnc1
    -3.2	-8.8%	6.9	.	-5.1%	6.8	-2.1%
O=c1c(Cc2ccccc2)c(O)ccn1Cc1ccco1
    5.8	-7.8%	0.5	1.3%	1.9%	10.8	23.4%
C/C(=N\NC(=O)Cc1ccc(F)cc1)c1ccc(O)cc1
    1.1	3.8%	24.6	1.5%	-19.4%	-11.5	-5.9%
COc1ccc(S(=O)(=O)NCCc2c[nH]c3ccc(C)cc23)cc1
    0.8	17.9%	-5.3	1.2%	?	10.3	31.6µM*
COc1cccc(/C=C/C(=O)OCC(=O)NCCc2ccccc2)c1
    0.2	9.3%	-5.4	-0.2%	-7.8%[15.4 µM]	-0.5	3.7%
O=[N+]([O-])c1ccc(OCCCCCN2CCOCC2)cc1
    0.1	0.0%	10.5	1.0%	-0.6%	3.4	-8.7%
CN(Cc1ccccc1)C(=O)COC(=O)c1c[nH]c2ccccc12
    .	.	-16.4	-1.5%	-21.6%	.	.
CCN(CC)S(=O)(=O)c1cc(NC(=O)COC(=O)CCc2nc3ccccc3s2)ccc1C
    -0.3	9.5%	25.4	0.2%	4.8%	8.5	-12.9%
O=C(CN1c2ccccc2S(=O)(=O)c2ccccc21)NCc1ccc(F)cc1
    .	11.1%	30.5	-3.4%	-4.3%	1.7	-14.1%
CC1(C)C(=O)Nc2ccccc2N1C(=O)c1ccc([N+](=O)[O-])cc1
    -1.6	9.2%	1.5	-5.0%	-2.7%[15.4 µM]	-8.2	-7.0%
Cc1occc1C(=O)N/N=C/c1ccc(N(C)C)cc1
    6.5	0.1%	6.4	.	-4.2%[15.4 µM]	-28.2	-12.4%
COc1ccccc1CNC(=O)COC(=O)Cc1cccs1
    0.1	8.9%	-15.3	-16.1%	-0.1%[15.4 µM]	2.0	2.9%
COc1ccc(NC(=S)Nc2cccc3ccccc23)cc1OC
    -1.5	-20.7%	1.6	4.3%	-43.5%[inhibitor]	22.2	1.7%
CCN(CC)CC#Cc1ccc(C)cc1
    -1.2	22.6%	32.4	0.7%	3.9%[15.4 µM]	8.3	15.0%
O=C(Nc1ccc(F)cc1)N1CCN(c2ccc(F)cc2)CC1
    0.3	12.9%	-2.5	.	20.1%	-4.9	13.4%
CCn1c(-c2cc(-c3ccc(C)c(C)c3)nc3ccccc23)n[nH]c1=S
    -1.3	-20.1%	.	.	.	-7.1	.
C[C@H](NC(=O)c1ccco1)C(=O)Nc1cc(S(=O)(=O)N2CCCC2)ccc1OCC(F)(F)F
    .	.	-2.9	-0.8%	8.6%	.	-8.9%
COc1cc(Cl)c(C)cc1NC(=O)CSc1cc(Cl)ccc1Cl
    4.0	-2.6%	-9.2	1.0%	-2.1%[15.4 µM]	0.6	-32.1%
CC(C)(C)C(=O)NCCCc1nc2ccccc2n1CCCOc1ccc(Cl)cc1
    -0.2	-1.0%	8.3	1.5%	25.7%	-15.1	-26.3%
C=CCn1cc(C(=O)NCCOC)c(=O)c2cc(S(=O)(=O)N(CC)CC)ccc21
    1.1	10.1%	-13.4	-6.5%	5.0%	-10.1	-12.6%
OC(COc1c(F)cc(Br)cc1F)CN1CCN(c2ccc(F)cc2)CC1 (stereo not given)
    5.4	-2.6%	0.8	-0.5%	-43.0%	-5.7	-1.9%
CCN1CCN(c2nc(-c3ccncc3)nc3ccccc23)CC1
    3.4	18.9%	.	.	.	-1.9	.
CCOc1ccc(CCNC(=O)C(CCC(N)=O)NC(=O)OCc2ccccc2)cc1OCC (stereo not given)
    6.2	13.3%	-4.5	.	-4.7%[15.4 µM]	8.8	-3.2%
COc1ccc(NC(=O)C2CCCN(S(=O)(=O)c3ccc4c(c3)oc(=O)n4C)C2)cc1OC (stereo not given)
    5.1	12.1%	-9.8	-1.1%	-15.8%	8.2	-2.8%
CCN(C(=O)CN1C(=O)c2ccccc2S1(=O)=O)C1CCCCC1
    .	.	-7.1	.	-9.0%[15.4 µM]	16.0	6.5%
COc1ccccc1CNCC(=O)Nc1cc(S(=O)(=O)N2CCCCCC2)ccc1Cl
    1.4	?	-6.4	.	3.3%[15.4 µM]	.	?
Cc1cccc(/C=N/NC(=O)c2cc(C3CC3)nc3ccccc23)n1
    .	-0.6%	-5.5	-1.1%	?	5.8	-7.5%
c1ccc(-c2nc(-c3ccco3)n3ccccc23)cc1
    ?	7.08µM*	30.9	-25.6%	40.3%	8.6	-19.1%
Cc1ccc(C)c(N2CCN(c3ccc(N4C(=O)COCC4=O)cc3[N+](=O)[O-])CC2)c1
    -0.8	0.5%	-14.4	0.1%	-0.4%	23.1	2.5%
COc1ccc(-c2nc(=S)n3ccsc3n2)cc1OC
    6.7	9.1%	2.4	-0.2%	17.6%[15.4 µM]	-11.0	-5.0%
Cc1cc(=O)oc2c3c(cc(OCC(=O)N[C@@H](Cc4ccccc4)C(=O)O)c12)OC(C)(C)CC3
    -3.5	5.7%	.	4.3%	.	-7.7	4.7%
O=C(CSc1n[nH]c(=O)[nH]c1=O)Nc1cccc(S(=O)(=O)N2CCOCC2)c1
    1.8	-7.4%	-1.8	-1.1%	?	9.9	8.0%
COC(=O)CCc1c(C)[nH]c(C(=O)OCc2ccccc2)c1C
    1.0&5.1	10.1%&-12.5%	0.3	-2.7%	?	9.4	-4.5%
COc1ccc(/C=N/NC(=O)CSc2nnc(CCCc3ccc(OC)c(C)c3)o2)cc1
    1.4	-7.6%	7.6	-22.4%	-8.0%	14.3	-15.3%
O=C(O)c1ccc(-n2nnnc2SCc2cccc(Br)c2)cc1
    7.7	12.5%	10.5	.	-18.9%	-3.6	-10.4%
COc1ccc(O)c(C(=O)c2cc(C#N)c(=O)n(-c3c(C)n(C)n(-c4ccccc4)c3=O)c2)c1
    -1.8	-9.8%	-1.0	9.6%	0.6%	6.2	-14.5%
O=C(Nc1ccc(F)cc1F)N1CCC(c2nc3ccccc3o2)CC1
    2.8	14.0%	4.2	.	22.7%[15.4 µM]	-13.5	-7.2%
CON(C)S(=O)(=O)c1cccc(C(=O)N(CC(=O)Nc2ccccc2C(F)(F)F)Cc2ccco2)c1
    .	.	-2.0	-0.1%	-16.1%	.	-5.7%
CCOC(=O)c1[nH]c2ccc(OC)cc2c1NC(=O)c1cccc(OC)c1
    1.3	1.0%	24.9	-6.8%	4.3%	-9.3	-24.7%
CN(C)c1ccc(-c2c(C3C4C=CCCC4(C)C(=O)N3Cc3ccccc3)ccc3ccccc23)cc1 (stereo not given)
    0.8	?	63.9	.	.	.	.

In the list so far, these have a cyano group:
Order of values: Menin-MLL FL inh	Sfp PPTase inh	TRPML1 inh	ClpP mod	gsp agonist	TRPV1 potentiator	gsp antagonist
CC(=O)C1=C(O)C(=O)N(CC#N)C1c1cccs1 (stereo not given)
    -2.7	-19.5%	16.3	-1.0%	0.0%	-3.7	7.7%
COc1ccc(O)c(C(=O)c2cc(C#N)c(=O)n(-c3c(C)n(C)n(-c4ccccc4)c3=O)c2)c1
    -1.8	-9.8%	-1.0	9.6%	0.6%	6.2	-14.5%
